# RE007 growth inh – qHTS Assay for Inhibitors of the HIV-1 protein Vpr; S. pombe RE007 Vpr strain, BacTiter-Glo ATP luminescence, 24 h; control for the full effect not named in the record; Potency, µM (highest dose often 92.2 µM), inactives show top-dose activity change, negative = less growth; 360,000 compounds, 0.21% hits; AID 651644, 2012; active = well fitted falling curve with a large enough effect; inconclusive = small, poorly fitted or top-dose-only effect; inactive = no such curve, though single readings can be large or run the other way;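 also: % is scaled to controls: 0 for no effect and ±100 for the full control effect; nearly all actives have a fitted effect of over 50% in size; the assay follows cell death caused by Vpr and the record does not say whether a fall means rescue or toxicity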
#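 Fission yeast RE007 carrying one integrated HIV-1 vpr copy, seeded at OD 0.01 in PMG+AL medium with 23 nL pinned compound. Grown 24 h at 30 degrees; viability read by BacTiter-Glo luminescence after 5 min.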
# Marburg entry inh – qHTS for inhibitors of binding or entry into cells for Marburg Virus. Marburg virus pseudotyped entry inhibition, cell reporter; control for the full effect not named in the record; about a third of the inactives were read at about 46 µM. Potency, µM (highest dose often 37.8 µM), inactives show top-dose activity change, negative = inhibition, actives largely listed as inhibitors. 300,000 compounds, 1.8% hits. AID 540276, 2011; active = well fitted inhibition curve with a large enough effect; inconclusive = small, poorly fitted or top-dose-only effect, or effect the other way; inactive = flat fitted curve, though single readings scatter; tested in HEK293 cells; about a fifth of its hits are not listed in these tables; also: % is scaled to controls: 0 for no effect and ±100 for the full control effect; luciferase read-out
# SARS PLpro yeast – qHTS of Yeast-based Assay for SARS-CoV PLP; S. cerevisiae expressing SARS-CoV PLpro, growth rescue; control for the full effect not named in the record; Potency, µM (doses to about 32.9 µM), for the others: at the highest dose activity, positive = growth rescue; 330,000 compounds, 0.19% hits; active means well fitted rising curve with a large enough effect; inconclusive means small, poorly fitted or top-dose-only effect; inactive means no such curve, though single readings can be large or run the other way; also: 0% is about no effect; nearly all actives have a fitted effect of over 55% in size; growth read by luminescence after 48 h
# Cruzain inh noDet – qHTS Assay for Promiscuous and Specific Inhibitors of Cruzain (without detergent); Cruzipain (Trypanosoma cruzi), P25779; purified cruzain, Z-FR-AMC fluorescence, no detergent; Potency, µM, for the others: max response, negative = inhibition, usual class: inhibitors; 200,000 compounds, 2.3% hits; AID 1476, 2009;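 also: plate controls were enzyme without inhibitor for no effect and buffer without enzyme for full effect; nearly all actives have a fitted effect of over 40% in size; top concentration of the series not given in the record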
# Target sequence (P25779 123-467 limits assumed): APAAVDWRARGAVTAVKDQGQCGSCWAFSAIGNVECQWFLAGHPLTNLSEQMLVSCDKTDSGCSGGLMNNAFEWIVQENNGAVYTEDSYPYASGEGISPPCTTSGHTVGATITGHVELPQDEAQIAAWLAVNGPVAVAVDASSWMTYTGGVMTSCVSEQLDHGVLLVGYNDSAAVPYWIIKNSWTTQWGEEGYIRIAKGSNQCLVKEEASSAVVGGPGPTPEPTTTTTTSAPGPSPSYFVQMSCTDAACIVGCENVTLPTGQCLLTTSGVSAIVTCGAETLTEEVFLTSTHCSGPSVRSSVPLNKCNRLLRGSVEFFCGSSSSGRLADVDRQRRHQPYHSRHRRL
#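 Detergent-free condition (0.00005% Triton X-100) in acetate buffer pH 5.5 with DTT. 1.5 nM enzyme and compound were pre-mixed 15 min, then 2 uM Z-FR-AMC substrate added; reaction progress from fluorescence change between first and third reads (60 s).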
# Cruzain inh Det – qHTS Assay for Promiscuous and Specific Inhibitors of Cruzain (with detergent). Cruzipain (Trypanosoma cruzi), P25779. purified cruzain, Z-FR-AMC fluorescence, 0.01% Triton. Potency, µM, without a hit: max response, negative = inhibition, hits mostly inhibitors. 200,000 compounds, 0.43% hits;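 also: plate controls were neutral wells for no effect and buffer without enzyme for full effect; nearly all actives have a fitted effect of over 40% in size; top concentration of the series not given in the record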
#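 Compounds were screened in titration against cruzain (1.5 nM) with 0.01% Triton X-100 to counter colloidal aggregation. Activity was the AMC fluorescence increase over 60 s after adding 2 uM Z-FR-AMC at pH 5.5.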
# 2A StopGo – High Throughput Screening for Foot and Mouth Disease Virus Antivirals; 410,000 compounds, 1.2% hits; human cells with a luciferase reporter of 2A StopGo recoding; control for the full effect not named in the record; Potency, µM (series often up to 57.9 µM), for the others: at the highest dose signal change, negative = less light; AID 1159524, 2015; active = well fitted falling curve with a large enough effect; inconclusive = small, poorly fitted or top-dose-only effect; inactive = no such curve, though single readings can be large or run the other way; tested in HEK293T cells; also: % is scaled to controls: 0 for no effect and ±100 for the full control effect; nearly all actives have a fitted effect of over 45% in size; luciferase light after 4 h
# NS1 inh – qHTS Assay for Inhibitors of Influenza NS1 Protein Function; S. cerevisiae slowed by influenza A NS1, growth recovery by OD600; Potency, µM (doses to about 46.1 µM), for the others: at the highest dose activity, positive = more growth; 270,000 compounds, 0.4% hits; AID 2326, 2010; active means well fitted rising curve with a large enough effect; inconclusive means small, poorly fitted or top-dose-only effect; inactive means no such curve, though single readings can be large or run the other way; also: nearly all actives have a fitted effect of over 50% in size
#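 A cell-based growth assay was used: compounds that relieve NS1-induced slow growth of budding yeast raise OD600. Assay medium was yeast nitrogen base with ammonium sulphate and -URA supplement, pH 6.0, with 2% galactose.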
# Lassa entry inh – qHTS for Inhibitors of binding or entry into cells for Lassa Virus; Lassa virus pseudotype entry inhibition, cell reporter; control for the full effect not named in the record; Potency, µM (series often up to 37.9 µM), for the others: at the highest dose activity change, negative = inhibition, hits mostly inhibitors; 300,000 compounds, 1.2% hits; AID 540256, 2011; active means well fitted inhibition curve with a large enough effect; inconclusive means small, poorly fitted or top-dose-only effect, or effect the other way; inactive means flat fitted curve, though single readings scatter; tested in HEK293 cells; also: % is scaled to controls: 0 for no effect and ±100 for the full control effect; nearly all actives have a fitted effect of over 50% in size; luciferase read-out
# An asterisk follows results filed as active; ? = inconclusive; · = not tested or not shown; & = joins results of further samples; [ ] = dose if it differs, or a comment. Unless noted, calls follow the shape of the dose curve; as a rule, active = well fitted curve in the direction sought with a large enough effect; inconclusive = small, poorly fitted or top-dose-only effect, or another doubt; inactive = no such curve, though single readings can be large; an effect the other way counts as inactive or inconclusive. Potency is read from the fitted curve at half-maximal effect.
SMILES,RE007 growth inh,Marburg entry inh,SARS PLpro yeast,Cruzain inh noDet,Cruzain inh Det,2A StopGo,NS1 inh,Lassa entry inh
O=C(CSc1nnc2ccccn12)NC(=O)NC1CCCCC1,15%,-14%,4%,12%,-1.2%,-14%,-10%,9%
O=C(O)/C=C/C(=O)Nc1ccc(NC(=O)c2ccccc2)c(Cl)c1,-3%,?,-6%,·,·,-1%,·,?
Clc1ccc(Cn2c(/C=C/c3ccco3)nc3ccccc32)cc1,17%,?,-20%,?,-9.7%,-19%,-24%,-4%
Cc1cc(Cl)ccc1OC(C)C(=O)NCCc1ccc2c(c1)OCCO2 (stereo not given),0%,-13%,4%,-6%,-2.3%,-21%,-17%,16%
CCn1cc(CCCC(=O)NCc2ccc(OC)cc2)c2ccccc21,17%,·,-2%,·,·,-23%,-7%,·
COc1ccc(Cn2c(CO)cnc2SCc2ccc(F)cc2)cc1,·,·,·,6%,-3.2%,-2%,·,3%[46.1 µM]
COC(=O)C1=C(C)N(C)C(C)=C(C(=O)OC)C1c1ccsc1,-2%,?,-7%,4%,-4.3%,-23%,-4%,5%
CC(C(Sc1ccccc1N)c1ccccc1)[N+](=O)[O-] (stereo not given),-29%,·,-21%,·,·,?,-34%,·
CCn1c(SCC(=O)Nc2nc(-c3ccc(C)cc3)cs2)nnc1-c1ccccc1,-4%,?,-3%,-6%,-2.2%,13µM*,0%,?
CC1CCCCN1C(=O)Cn1cc(C=C2C(=O)N(C)C(=O)N(C)C2=O)c2ccccc21 (stereo not given),-5%,-14%,1%,·,·,-28%,9%,-4%
Cc1ccccc1C(=O)Nc1ccnn1C1CCN(C(=O)c2cnsn2)CC1,6%,·,3%,·,·,-8%,-5%,·
O=c1c2c3nc4ccccc4nc3n(-c3cccc(F)c3)c2ncn1Cc1ccc2c(c1)OCO2,·,·,-2%,2%,4.7%,·,?,·
Cc1ccc(NCN2C(=O)C3C4CCC(C4)C3C2=O)cc1 (stereo not given),·,·,15%,0%,4.6%,·,5%,·
COc1cccc(C2C(C(=O)Nc3ccc(C)cc3C)=C(C)Nc3c(C(=O)Nc4ccccc4)cnn32)c1 (stereo not given),·,·,·,?,-6.4%,-8%,·,3%[46.1 µM]
CC(C)(C)OC(=O)NCCCC[C@H](NC(=O)[C@H](Cc1c[nH]c2ccccc12)NC(=O)OCc1ccccc1)C(=O)O,5%,·,1%,·,·,0%,6%,·
COc1ccc(OC)c(C2CC(=O)N3CN(c4ccccc4)CSC3=C2C#N)c1 (stereo not given),-2%,·,3%,-29%,-4.5%,-17%,-43%,·
Cc1cccnc1NC(=O)c1ccccc1-c1ccccc1C(=O)Nc1ncccc1C,11%,4%,2%,2%,5.7%,-4%,13%,7.3µM*
CCOC(=O)C1=C(C)Nc2sc(C(=O)c3ccc(C)cc3)c(N)c2C1c1ccc(C(=O)OC)cc1 (stereo not given),17%,?,0%,?,-1.0%,-17%,10µM*,?
COc1ccccc1CN1CC(C(=O)N2CCCCO2)CCC1=O (stereo not given),-6%,?,0%,·,·,33%[activator],-1%,-5%[46.1 µM]
COc1ccc(NC(=O)c2ccc(CN3CCN(c4ccccc4)CC3)cc2)cc1OC,2%,10µM*,7%,-13%,-0.7%,-8%,?,?
Cc1cc(C)cc(-n2c(SCC(=O)N3CCCCCC3)nc3c([nH]c4ccccc43)c2=O)c1,·,·,·,11%,0.7%,-24%,·,-10%[46.1 µM]
CCN(CC)CCCNC(=O)c1cn(CCOC)c(=O)c2c1c1ccccc1n2C,-1%,8%,4%,14%,-2.2%,5%,9%,?
O=C(O)CCn1c(=O)oc2cc(S(=O)(=O)N3CCCC3)ccc21,-2%,-15%,0%,·,·,-3%,·,-2%
Clc1ccc(CCNCc2ccncc2)c(Cl)c1,7%,·,-1%,·,·,-24%,9%,·
O=C(CCNC(=O)C1CCN(S(=O)(=O)c2ccc(F)cc2)CC1)NCc1ccc(Cl)cc1,-10%,·,1%,·,·,-12%,3%,·

# Structural class: the compounds so far containing a COOH group (three)
SMILES,RE007 growth inh,Marburg entry inh,SARS PLpro yeast,Cruzain inh noDet,Cruzain inh Det,2A StopGo,NS1 inh,Lassa entry inh
O=C(O)/C=C/C(=O)Nc1ccc(NC(=O)c2ccccc2)c(Cl)c1,-3%,?,-6%,·,·,-1%,·,?
CC(C)(C)OC(=O)NCCCC[C@H](NC(=O)[C@H](Cc1c[nH]c2ccccc12)NC(=O)OCc1ccccc1)C(=O)O,5%,·,1%,·,·,0%,6%,·
O=C(O)CCn1c(=O)oc2cc(S(=O)(=O)N3CCCC3)ccc21,-2%,-15%,0%,·,·,-3%,·,-2%

# More compounds
SMILES,RE007 growth inh,Marburg entry inh,SARS PLpro yeast,Cruzain inh noDet,Cruzain inh Det,2A StopGo,NS1 inh,Lassa entry inh
Cn1c(-c2ccc(Br)cc2)cnc1NCc1ccc(C#N)cc1,-2%,·,-4%,·,·,-27%,-21%,·
CC(=O)OC1CC2(C)C(=O)CCC2C2CCc3cc(O)ccc3C12 (stereo not given),5%,9%,11%,-2%,1.0%,·,-3%,-15%
CCCCOc1ccc(C(=O)NCc2ccccn2)cc1,25%,9%,-4%,7%,-4.3%,26%,-10%,12%
COCCn1cnc2c1c(=O)n(CC(=O)O)c(=O)n2Cc1ccccc1,-15%,·,1%,·,·,-1%,7%,·
Cc1ccc(C(=O)Nc2cc3nn(-c4ccccc4)nc3cc2Cl)c(C)c1,·,-24%[46.1 µM],·,12%,0.6%,-13%,·,28%[46.1 µM]
N#Cc1ccc(-c2cccs2)nc1SCc1c(F)cccc1Cl,·,?,·,-5%,-1.1%,0%,·,4%[46.1 µM]
Cc1cc(C)c(C#N)c(SCCS(=O)(=O)c2ccc(Cl)cc2)n1,-4%,-18%[46.1 µM],-2%,·,·,-21%,-7%,?
CCCCCCn1c(O)c(C(C)=NC)c(=O)[nH]c1=O,1%,19%&19%,-8%,-7%,-2.6%,·,-8%,11%
Cc1cccc(CSc2nc3ccncc3n2CC(=O)Nc2ccc(C)c(C)c2)c1,·,?,-1%,5%,-3.4%,·,25%,0%
CCNc1ccc(C(=O)OCC)cc1NC(=O)c1cc(S(=O)(=O)N2CCOCC2)ccc1C,4%,0%&-18%,0%,?,0.3%,·,-4%,-5%
COc1ccc(C(=O)N=c2sc3ccccc3n2C)cc1OC,-3%,?,0%,·,·,5%,-7%,-7%[46.1 µM]
O=C(COC(=O)Cc1ccc(F)cc1)NC(=O)c1ccccc1,-20%,23%,-3%,·,·,-18%,·,14%
O=C(c1ccco1)N1CCN(c2nc(C3CC3)nc3c2nnn3Cc2ccccc2Cl)CC1,6%,?,-3%,15%,-5.5%,35µM*,27%,?
COCCCN(C(=O)c1cc(Cl)nc2ccccc12)c1c(N)n(Cc2ccccc2)c(=O)[nH]c1=O,-22%,?,-1%,·,·,0%,·,10%
COc1ccc(NC(C)=O)cc1NC(C)C(=O)Nc1cc(C(F)(F)F)ccc1N1CCOCC1 (stereo not given),-14%,-2%,1%,?,2.0%,-1%,-2%,3%
Cc1ccc2[nH]c(CSc3nnc(C)s3)cc(=O)c2c1,·,·,·,-15%,0.9%,13%,·,7%[46.1 µM]
OCCN1CCN(Cc2ccc3ccccc3c2)CC1,-3%,·,4%,·,·,-13%,-12%,·
O=C(COc1ccc2ccccc2c1)Nc1ccc(Br)cc1C(=O)O,3%,4%,-2%,·,·,-12%,-3%,?
CCC(C)[C@H]1CN=C(N)N1CCCc1cc(OC)c(OC)c(OC)c1 (stereo not given in full),-9%,·,-2%,·,·,-4%,-1%,·
COc1ccc(NC2CC(=O)N(c3cc([N+](=O)[O-])ccc3C)C2=O)cc1 (stereo not given),12%,-5%[46.1 µM],-1%,·,·,-10%,9%,-1%
C/C(N)=C(/C#N)C(=O)CSc1nnc(-c2ccc(OC(F)F)cc2)o1,-10%&9%,?,4%,2%,-3.9%,45%[activator],3%,?
COc1ccc(C(=O)N[C@H](C(=O)NCCCSc2ccccc2)C(C)C)cc1,-7%,?,-20%,·,·,-28%,·,?
COc1nc(N2CCOCC2)nc(C)c1[N+](=O)[O-],-7%,5%,-7%,-13%,-2.3%,-17%,5%,-2%
Cc1noc(C)c1S(=O)(=O)N1CCC(C(=O)c2ccccc2)CC1,0%,-2%,1%,·,·,-8%,-5%,-1%
COc1ccc(NC(=O)CN(C)S(=O)(=O)c2cnc[nH]2)cc1OC,3%,·,10%,·,·,-12%,-2%,·
N#C/C(=C\c1ccc(O)c(O)c1)C(=O)NCc1ccccc1,4%[18.4 µM],?,·,-7%&11%,-4.9%&-2.5%,8%&-6%&23%,-31%,2%
O=C(CCn1c(=O)c2cccn2c2ccc(F)cc21)NCc1cccc(F)c1,2%,·,0%,·,·,-27%,9%,·

# Single records, from the list above. Order of screens: RE007 growth inh | Marburg entry inh | SARS PLpro yeast | Cruzain inh noDet | Cruzain inh Det | 2A StopGo | NS1 inh | Lassa entry inh
# `CCN(CC)CCCNC(=O)c1cn(CCOC)c(=O)c2c1c1ccccc1n2C` is listed as -1% | 8% | 4% | 14% | -2.2% | 5% | 9% | ?
# `Cc1ccccc1C(=O)Nc1ccnn1C1CCN(C(=O)c2cnsn2)CC1` is listed as 6% | · | 3% | · | · | -8% | -5% | ·
# `Clc1ccc(CCNCc2ccncc2)c(Cl)c1` is listed as 7% | · | -1% | · | · | -24% | 9% | ·
# `C/C(N)=C(/C#N)C(=O)CSc1nnc(-c2ccc(OC(F)F)cc2)o1` is listed as -10%&9% | ? | 4% | 2% | -3.9% | 45%[activator] | 3% | ?
# `OCCN1CCN(Cc2ccc3ccccc3c2)CC1` is listed as -3% | · | 4% | · | · | -13% | -12% | ·

# Assay outcomes as filed in PubChem.
